Bioassay records (PubChem)
EPAC1 ag val – validation of human EPAC1 agonists | O95398 | EPAC1 Rap1b BODIPY-GDP exchange, fluorescence | Potency, µM, inactives show max response, positive = active, hits mostly activators | 16,000 tested, 1% active | AID 1645883; active = well fitted activation curve with a large enough effect; inconclusive = small, poorly fitted or top-dose-only effect; inactive = no such curve, though single readings can be large or run the other way;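 note: nearly all actives have a fitted effect of over 70% in size; series mostly up to about 76 or 150 µM; scaled to a cAMP control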
Target sequence (O95398 whole entry, looked up): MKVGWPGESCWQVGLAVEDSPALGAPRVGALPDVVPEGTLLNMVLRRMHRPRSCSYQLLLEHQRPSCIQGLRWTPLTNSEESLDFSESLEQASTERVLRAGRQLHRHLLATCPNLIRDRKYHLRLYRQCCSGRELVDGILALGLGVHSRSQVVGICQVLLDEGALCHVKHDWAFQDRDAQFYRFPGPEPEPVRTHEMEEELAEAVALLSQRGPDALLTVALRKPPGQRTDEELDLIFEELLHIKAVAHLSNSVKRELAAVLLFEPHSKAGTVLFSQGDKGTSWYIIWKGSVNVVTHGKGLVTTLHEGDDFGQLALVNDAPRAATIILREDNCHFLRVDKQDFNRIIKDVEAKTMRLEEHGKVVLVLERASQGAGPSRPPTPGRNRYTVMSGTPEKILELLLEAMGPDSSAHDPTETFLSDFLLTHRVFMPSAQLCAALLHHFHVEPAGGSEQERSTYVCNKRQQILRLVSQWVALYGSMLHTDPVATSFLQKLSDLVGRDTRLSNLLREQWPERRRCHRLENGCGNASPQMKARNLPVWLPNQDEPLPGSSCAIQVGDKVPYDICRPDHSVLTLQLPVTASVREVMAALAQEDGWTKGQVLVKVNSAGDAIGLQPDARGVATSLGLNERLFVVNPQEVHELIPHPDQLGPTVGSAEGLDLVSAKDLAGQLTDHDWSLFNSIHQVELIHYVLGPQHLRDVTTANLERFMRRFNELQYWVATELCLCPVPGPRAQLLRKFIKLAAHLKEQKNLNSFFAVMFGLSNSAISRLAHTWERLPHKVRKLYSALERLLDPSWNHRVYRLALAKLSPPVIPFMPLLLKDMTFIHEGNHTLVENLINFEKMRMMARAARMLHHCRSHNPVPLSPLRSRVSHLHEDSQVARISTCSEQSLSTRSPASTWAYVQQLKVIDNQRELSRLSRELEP
Starred values were filed as active, the others as inactive; ? = inconclusive; & = joins results of further samples; [ ] = dose if it differs, or a comment. % is set by controls: 0 for no effect and ±100 for the full control effect; potency is the fitted concentration of half-maximal effect. This is a subset; count on the stated rates, not on these rows.

COC(=O)C1C(O)CC[C@@H]2CN3CCc4c([nH]c5ccccc45)C3C[C@@H]12 (stereo not given in full)
  EPAC1 ag val = -17%&-5%
Cc1ccc(CN2[C@@H](CC3CCCCC3)COCCS2(=O)=O)cc1
  EPAC1 ag val = -79%[inhibitor]
COCc1ccc(CN2CCOc3c(O)cc(-c4cc(C)c5ccc(F)cc5n4)cc3C2)o1
  EPAC1 ag val = 18%
C[C@H]1C[C@@H]2[C@@H]([C@@H](O)C[C@@]3(C)[C@H]2CC[C@]3(O)C(=O)CO)[C@@]2(C)C=CC(=O)C=C12
  EPAC1 ag val = -40%
Cc1cnc(CNc2ncncc2-c2ccc(N(C)C)cc2)cn1
  EPAC1 ag val = -9%
C[C@H]1C[C@H]2[C@@H]3CCC4=CC(=O)C=C[C@]4(C)[C@@]3(F)[C@@H](O)C[C@]2(C)[C@@]1(O)C(=O)CO
  EPAC1 ag val = -20%
COc1ccccc1-c1ccnc(-n2ncc(C(=O)NCCCN3CCOCC3)c2C)n1
  EPAC1 ag val = -9%
Cc1c(C(=O)N2CCN(C)CC2)sc2ncnc(NCC3(c4ccccc4)CCOCC3)c12
  EPAC1 ag val = 16%
N#CCCn1c(=O)c(-c2cccs2)nc2cnc(OCc3ccccc3)nc21
  EPAC1 ag val = 23%
COCCNc1cc(-c2c(C)noc2C)ncn1
  EPAC1 ag val = -24%

COc1cc(C(=S)N2CCOCC2)cc(OC)c1OC
  EPAC1 ag val = 7%
Oc1cc(O)cc(/C=C/c2ccc(O)c(O)c2)c1
  EPAC1 ag val = 3%&-11%
O=C(NCCc1ccccn1)C1CC12CCN(C(=O)c1ccccc1Cl)CC2 (stereo not given)
  EPAC1 ag val = -7%
COCC(=O)Nc1cc(C(=O)N2CCCCC2c2nccn2C)cc2nc(-c3ccccc3)n(C)c12 (stereo not given)
  EPAC1 ag val = 6%
CCCCC/C=C\C/C=C\C/C=C\C/C=C\CCCC(=O)O[C@@H](CO)COCCCCCCCCCCCCCCCC
  EPAC1 ag val = -9%
C[C@H]1CCC(=O)N([C@H](CC#N)Cc2ccccc2)CC1
  EPAC1 ag val = -10%
O=C1c2ccccc2C(=O)c2c(O)ccc(O)c21
  EPAC1 ag val = -23%
COc1cccc(-c2cncnc2NCCN2CCOCC2)c1
  EPAC1 ag val = -14%
O=c1c(-c2cccc(Cl)c2)nc2cncnc2n1-c1ccccc1
  EPAC1 ag val = -13%
CC(=O)N1CCC2(CC1)CN(Cc1cc(C(F)(F)F)cc(C(F)(F)F)c1)C2
  EPAC1 ag val = -62%[inhibitor]

An excerpt of these results, with the structure last.
EPAC1 ag val	smiles
-7%	O=C(NCCc1ccccn1)C1CC12CCN(C(=O)c1ccccc1Cl)CC2 (stereo not given)
6%	COCC(=O)Nc1cc(C(=O)N2CCCCC2c2nccn2C)cc2nc(-c3ccccc3)n(C)c12 (stereo not given)
-9%	CCCCC/C=C\C/C=C\C/C=C\C/C=C\CCCC(=O)O[C@@H](CO)COCCCCCCCCCCCCCCCC
-10%	C[C@H]1CCC(=O)N([C@H](CC#N)Cc2ccccc2)CC1

Other entries follow.
COC(=O)c1cc(Br)ccc1N(Cc1cc(OC)cc(OC)c1)S(C)(=O)=O
  EPAC1 ag val = -17%
COc1ccccc1CNc1ncnc2ccc(-c3ccoc3)cc12
  EPAC1 ag val = ?
CC(C)c1c(C(=O)NCc2cccnc2)cnn1-c1nccc(-c2cccs2)n1
  EPAC1 ag val = 10%
COc1ccc(Oc2ncc3nc(-c4cccs4)c(=O)n(-c4ccccc4)c3n2)cc1
  EPAC1 ag val = ?
CO[C@H]1C=CO[C@@]2(C)Oc3c(C)c(O)c4c(O)c(c5c(nc6cc(C)ccn65)c4c3C2=O)NC(=O)/C(C)=C\C=C[C@H](C)[C@H](O)[C@@H](C)[C@@H](O)[C@@H](C)[C@H](OC(C)=O)[C@@H]1C
  EPAC1 ag val = -50%[inhibitor]
COc1ccccc1-c1cncnc1NCCc1cnc[nH]1
  EPAC1 ag val = ?
O=C1Cc2c([nH]c3ccc(Br)cc23)-c2ccccc2N1
  EPAC1 ag val = 9%&-13%
COc1cccc(Nc2ncc3nc(CCc4ccccc4)c(=O)n(C[C@H]4CCCO4)c3n2)c1
  EPAC1 ag val = -39%[inhibitor]
CC1C(=O)OC2CC34C5CC(C(C)(C)C)C36C(OC(=O)C6O)OC4(C(=O)O5)C21O (stereo not given)
  EPAC1 ag val = -18%
CO[C@H]1C=CO[C@@]2(C)Oc3c(C)c(O)c4c(O)c(c5c(c4c3C2=O)=NC2(CCN(CC(C)C)CC2)N=5)NC(=O)/C(C)=C\C=C/[C@H](C)[C@H](O)[C@@H](C)[C@@H](O)[C@@H](C)[C@H](OC(C)=O)[C@@H]1C
  EPAC1 ag val = -31%[inhibitor]

N#Cc1cccc(-c2cncnc2NCc2cccnc2)c1
  EPAC1 ag val = 4%
COc1ccc(-c2cc(=O)c3c(O)cc(O[C@@H]4OC(COC5OC(C)C(O)C(O)[C@@H]5O)C(O)C(O)C4O)cc3o2)cc1 (stereo not given in full)
  EPAC1 ag val = -18%
OC(Br)C(O)C(O)N1CCCc2ccccc21 (stereo not given)
  EPAC1 ag val = ?
O=S(=O)(c1ccccc1)N1CCC2(CCCN(Cc3ccccc3)C2)CC1
  EPAC1 ag val = 23%
NC[C@H]1O[C@H](O[C@H]2[C@H](O[C@@H]3O[C@H](CO)[C@@H](O)[C@H]3O)C(O)[C@H](N)C[C@@H]2N)[C@H](N)[C@@H](O)[C@@H]1O (stereo not given in full)
  EPAC1 ag val = -35%[inhibitor]
COc1ccc(C(=O)N2CCC[C@@]3(CCN(C(=O)Nc4cccc(F)c4)C3)C2)cc1
  EPAC1 ag val = -36%
Cc1noc(C)c1-c1ccc2ncnc(NC3CC3)c2c1
  EPAC1 ag val = -83%[inhibitor]
Cc1cccc2cc(CN(C(=O)c3ccc(N4CCCCC4)cc3)C3CC3)c(N3CCC(O)CC3)nc12
  EPAC1 ag val = 8%
O=C(NCc1ccccn1)c1cnn(-c2nccc(-c3ccccc3F)n2)c1C1CC1
  EPAC1 ag val = -6%
CN(C)Cc1ccccc1-c1nc(NCc2cccs2)c2ccccc2n1
  EPAC1 ag val = -12%

An excerpt from above in order of the EPAC1 ag val value, falling:
SMILES | EPAC1 ag val
Cc1cccc2cc(CN(C(=O)c3ccc(N4CCCCC4)cc3)C3CC3)c(N3CCC(O)CC3)nc12 | 8%
N#Cc1cccc(-c2cncnc2NCc2cccnc2)c1 | 4%
O=C(NCc1ccccn1)c1cnn(-c2nccc(-c3ccccc3F)n2)c1C1CC1 | -6%
CN(C)Cc1ccccc1-c1nc(NCc2cccs2)c2ccccc2n1 | -12%
COc1ccc(-c2cc(=O)c3c(O)cc(O[C@@H]4OC(COC5OC(C)C(O)C(O)[C@@H]5O)C(O)C(O)C4O)cc3o2)cc1 (stereo not given in full) | -18%
COc1ccc(C(=O)N2CCC[C@@]3(CCN(C(=O)Nc4cccc(F)c4)C3)C2)cc1 | -36%

Random excerpt: 3 records from the list, in no set order.
O=C(NCc1ccccn1)c1cnn(-c2nccc(-c3ccccc3F)n2)c1C1CC1
  EPAC1 ag val = -6%
Cc1noc(C)c1-c1ccc2ncnc(NC3CC3)c2c1
  EPAC1 ag val = -83%[inhibitor]
Cc1cccc2cc(CN(C(=O)c3ccc(N4CCCCC4)cc3)C3CC3)c(N3CCC(O)CC3)nc12
  EPAC1 ag val = 8%

The listing continues:
C1CCC(NC(=NC2C3CC4CC(C3)CC2C4)N2CCOCC2)CC1 (stereo not given)
  EPAC1 ag val = -5%&-16%
COc1ccc(-n2c(=O)c(-c3cc(F)cc(F)c3)nc3cnc(N4CCOCC4)nc32)cc1
  EPAC1 ag val = -2%
CCC1(C2CCN(Cc3cccc(Cl)c3)CC2)NC(=O)N(CC2COc3ccccc3O2)C1=O (stereo not given)
  EPAC1 ag val = 10%
COc1ccc(-c2nc3cnc(N4CCOCC4)nc3n(CCc3ccccc3)c2=O)cc1
  EPAC1 ag val = 11%
O=C(NCCN1Cc2ccccc2OC(c2ccsc2)C1)c1ccc2[nH]ccc2c1 (stereo not given)
  EPAC1 ag val = 30%
CN(C)C(=O)c1ccc(-c2ccc3ncnc(Nc4ccccc4)c3c2)cc1
  EPAC1 ag val = ?
CN(C)c1ccc(-c2nc(-n3ccnc3)c3ccccc3n2)cc1
  EPAC1 ag val = 16%
CC(C(=O)O)c1cccc(C(=O)c2ccccc2)c1 (stereo not given)
  EPAC1 ag val = -2%&0%&13%
Oc1ccc(CCNCCCCCCNCCc2ccccc2)cc1O
  EPAC1 ag val = 3%
Cc1ccc(CNc2nc(C)c(-c3ccn(CCN4CCOCC4)n3)s2)o1
  EPAC1 ag val = 9%

Cc1oc(-c2cccc(NC(=O)c3ccccc3)c2)nc1CNC(=O)c1cnc2ccccn2c1=O
  EPAC1 ag val = -13%
O=C(c1cccc(N2CCCC2=O)c1)N1CCC(Oc2cccc(CN3CCN(c4ccccn4)CC3)c2)CC1
  EPAC1 ag val = -19%
Nc1nc2nc(Cl)[nH]c2c(=O)[nH]1
  EPAC1 ag val = ?
COc1cccc(CN2CCCC(c3nc(-c4ccncc4)ncc3-c3ccccc3)C2)c1O (stereo not given)
  EPAC1 ag val = 8%
O=c1c(-c2cccs2)nc2cnc(N3CCNCC3)nc2n1Cc1cccs1
  EPAC1 ag val = ?
COc1ccc2c3c1OC1CC(O)C=C[C@@]31CCN(C)C2 (stereo not given in full)
  EPAC1 ag val = 4%
O=C(c1n[nH]c2c1CCCC2)N1CCC(n2c(C3CCCO3)nc3ccccc32)CC1 (stereo not given)
  EPAC1 ag val = 4%
CCOC(=O)C1=C[C@@]2(CC)CCCN3CCc4c(n1c1ccccc41)[C@H]32
  EPAC1 ag val = -15%
Cc1cccc(CNc2nc(-c3ccoc3)nc3ccccc23)c1
  EPAC1 ag val = -22%
Nc1ccccc1C(=O)C[C@H](N)C(=O)O
  EPAC1 ag val = -14%

(further entries)
| Molecule | EPAC1 ag val |
| --- | --- |
| COCc1c(C(=O)N2CCN(c3ccccc3)CC2)cnn1-c1nccc(-c2ccco2)n1 | 4% |
| O=C(c1csnn1)N1CCC[C@@]2(CCN(c3cccc(-c4ccccc4)c3)C2)C1 | -64%[inhibitor] |
| CN1CCc2cc3c(cc2[C@@H]1[C@@H]1C(=O)Oc2c1ccc1c2OCO1)OCO3 | -1% |
| COCCNc1ncnc2ccc(-c3ccc(C(=O)N(C)C)cc3)cc12 | -10% |
| Nc1ncnc2c1ncn2C1CCCC1 | 4% |
| O=C(c1cn(C2CCCN(Cc3cccc(Oc4ccccc4)c3)C2)nn1)N1CCCC1 (stereo not given) | -5% |
| COCC1CCCN(Cc2ccc3c(c2)CN(C(=O)c2ccc(-n4cccn4)cc2)CCO3)C1 (stereo not given) | -15% |
| CO[C@H]1[C@H](NC(=O)c2ccsc2)c2ccccc2C12CCN(Cc1cc(Cl)ccc1O)CC2 | 7% |
| CC(=O)OCC(=O)[C@]1(O)C(C)CC2C3CCC4=CC(=O)C=C[C@@]4(C)[C@]3(F)C(O)C[C@@]21C (stereo not given in full) | 30% |
| CCn1c(C)nc2cc(NS(=O)(=O)c3ccccc3)cc(C(=O)N3C[C@@H](C)O[C@@H](C)C3)c21 | -10% |
| O=S(=O)(c1ccccc1)N1CCC2(CCCN(c3ncccn3)C2)CC1 | ? |
| COc1cc(=O)n2c(c1C(=O)NCc1ccco1)CCN(Cc1ccc3nsnc3c1)CC2 | -8% |
| CN(C)c1ccc(-c2cncnc2Nc2ccc(F)cc2)cc1 | -7% |
| CCOC(=O)[C@H](CCc1ccccc1)N[C@@H](C)C(=O)N1[C@H](C(=O)O)C[C@H]2CCCC[C@@H]21 | -5%&7%&-14% |
| Cc1ncc2c(c1CNC(=O)c1ccc3c(c1)OCO3)CCN(C(=O)c1cc3ccccc3o1)C2 | 9% |
| CC1O[C@@H](Oc2c(-c3ccc(O)c(O)c3)oc3cc(O)cc(O)c3c2=O)C(O)C(O)C1O (stereo not given in full) | 12% |
| CCC1CN(CCNC(=O)c2cscn2)Cc2cc(OC)ccc2O1 (stereo not given) | 15% |
| C[C@]12O[C@H](C[C@]1(O)CO)n1c3ccccc3c3c4c(c5c6ccccc6n2c5c31)CNC4=O | 20% |
| CC(C)CN1CCC2(CC1)CCN(C(=O)c1ccncc1)CC2 | -62%[inhibitor] |
| Cc1cnc(CNc2ccnc(-c3cccc(C#N)c3)n2)cn1 | -11% |
| Nc1ncnc2c1ncn2CCOCP(=O)(O)O | -14% |
| Nc1nc(/C(=C/CC(=O)O)C(=O)N[C@@H]2C(=O)N3C(C(=O)O)=CCS[C@H]23)cs1 | 13% |
| COc1ccc(-n2c(=O)c(-c3cc(F)cc(F)c3)nc3cnc(N(C)C)nc32)cc1 | ? |
| Cc1cnc(-n2ncc(C(=O)NCc3ccncc3)c2C2CC2)nc1-c1cccs1 | -9% |
| C[C@]12CC[C@@H]3c4ccc(O)cc4C[C@@H](CCCCCCCCCS(=O)CCCC(F)(F)C(F)(F)F)[C@H]3[C@@H]1CC[C@@H]2O (stereo not given in full) | 5%&-91% |
| CN(CCOc1ccc(CC2SC(=O)NC2=O)cc1)c1ccccn1 (stereo not given) | ? |
| CC(C)NCC(O)COc1cccc2[nH]ccc12 (stereo not given) | ? |
| OC(c1ccc2c(c1)CN(Cc1cccc3nccnc13)CCO2)C1CCCCC1 (stereo not given) | 12% |
| CC=C1C2C=C(C)CC1(N)c1ccc(=O)[nH]c1C2 (stereo not given) | -3% |
| Nc1ccc(O)c([N+](=O)[O-])c1 | ? |
| N[C@H](CS)C(=O)O | -19% |
